RecA intein inh – Mtb RecA intein splicing inhibitors, primary screen, biochemical, fluorescence, HTS; hit rate 0.75% among 290,000; AID 2221, 2009; cell-free RecA intein splicing; inhibition, %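 (about 9 µM by stock and volumes)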; Protein RecA (Mycobacterium tuberculosis (strain ATCC 25618 / H37Rv)), P9WHJ3; in the data active = inhibition above about 30%; inconclusive = no clear call, values can overlap the other calls;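 note: 0% = vehicle wells and 100% = reference inhibitor control wells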
Target sequence (P9WHJ3 whole entry, looked up): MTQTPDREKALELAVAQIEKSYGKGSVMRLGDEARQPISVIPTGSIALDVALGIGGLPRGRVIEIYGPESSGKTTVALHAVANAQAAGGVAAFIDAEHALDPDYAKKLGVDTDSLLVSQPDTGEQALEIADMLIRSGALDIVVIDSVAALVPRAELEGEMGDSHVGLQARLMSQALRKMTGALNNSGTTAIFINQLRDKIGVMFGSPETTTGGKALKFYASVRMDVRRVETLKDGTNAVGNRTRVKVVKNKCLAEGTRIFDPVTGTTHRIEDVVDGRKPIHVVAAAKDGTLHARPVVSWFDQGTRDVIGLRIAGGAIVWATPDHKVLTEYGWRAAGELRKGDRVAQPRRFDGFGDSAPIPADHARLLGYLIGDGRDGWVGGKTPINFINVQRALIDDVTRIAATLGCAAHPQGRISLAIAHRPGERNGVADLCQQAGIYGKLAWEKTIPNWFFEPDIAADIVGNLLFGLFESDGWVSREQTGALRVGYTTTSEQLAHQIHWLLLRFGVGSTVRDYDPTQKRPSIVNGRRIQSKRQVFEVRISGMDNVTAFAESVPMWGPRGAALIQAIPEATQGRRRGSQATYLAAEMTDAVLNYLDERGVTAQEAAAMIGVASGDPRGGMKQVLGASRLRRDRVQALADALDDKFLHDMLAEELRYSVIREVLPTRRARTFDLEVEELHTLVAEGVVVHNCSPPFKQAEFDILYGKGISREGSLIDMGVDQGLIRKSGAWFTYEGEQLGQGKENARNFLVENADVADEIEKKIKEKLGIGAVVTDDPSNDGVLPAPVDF
Mtb bLac sens – beta-lactam sensitization of Mtb H37Rv, H37Rv; M. tuberculosis H37Rv growth with meropenem, percent inhibition; hits of this screen are not shown here; inhibition, % at 25 µM; hit rate 0.27% among 330,000; AID 434955, 2010;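 active = about 74% or more and at least 40 points above the plate without the antibiotic, then above 30% in a dose series; inconclusive = first-round hits that could not be retested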;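 note: growth measured after seven days incubation then overnight dye step; 0% = bacteria only wells and 100% = bacteria with antibiotic; twin plates without the antibiotic show which effects depend on it; some results filed as inactive read as strong as hits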
YopH inh – YopH tyrosine phosphatase inhibitors, primary screen, biochemical, fluorescence Ex485/Em525; YopH tyrosine phosphatase [Yersinia enterocolitica]; inhibition, %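 (about 10 µM by stock and volumes)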; hit rate 0.16% among 140,000; AID 898, 2007;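 active = inhibition of 50% or more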;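 note: controls were vehicle for no effect and minimum signal wells for full effect; inactives centre near -20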
Arbovirus anti – antivirals against arbovirus infection, primary screen, cell-based, full library, 10K replicate subset; AID 1251, 2008; arbovirus infection cell-based antiviral screen; hit rate 0.37% among 200,000; inhibition, % at 10 µM;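 active = inhibition from about 30%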;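 note: bluetongue infection of BSR cells; cell survival read as ATP light after 72 h; 0% = infected wells without compound and 100% = uninfected wells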
Mtb H37Rv – M. tuberculosis H37Rv growth inhibitors, H37Rv strain (AID 1626); M. tuberculosis H37Rv growth inhibition; higher % means a stronger effect; inhibition, % at 10 µM; hits with a dose series show IC50 in µM; hit rate 0.95% among 220,000;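 active = confirmed in a dose series; inconclusive = inhibition above 80% but not taken into the dose series; inactive = below 80% or under 30% at every dose of the series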;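 note: bacteria incubated seven days before Alamar blue readout; 0% = bacteria only wells and 100% = bacteria with antibiotic wells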
Arbovirus anti repeat – second read-out of Arbovirus anti, no call of its own (marks repeat the call); inhibition, %; measured here: 10K subset replicate screen; many hits read low in the repeat;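 first of two repeat runs on a subset; 0% = infected and 100% = uninfected wells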
* hit, by the source's call; ? = inconclusive; · = not tested or not shown.

SMILES | RecA intein inh | Mtb bLac sens | YopH inh | Arbovirus anti | Mtb H37Rv | others
OCC1(Cc2ccccc2)CCN(Cc2ccc(C(F)(F)F)cc2)CC1 | · | 5 | · | -13 | 10%
CSc1ncc(S(=O)(=O)c2ccccc2)c(=O)[nH]1 | -0.6 | 0 | · | 13 | -1%
CC(C)n1c(O)c(N=Nc2ccc(Cl)c(C(=O)O)c2)c2ccccc21 | 6.3 | -11 | · | · | -3%
COCCN(C(=O)COC(=O)c1cc2c(s1)CCC2)c1c(N)n(Cc2ccccc2)c(=O)[nH]c1=O | 1.9 | 6 | · | · | ·
Cc1oc(-c2ccc3ccccc3c2)nc1CN(C)C(C)c1ccncn1 (configuration not stated) | 3.8 | 19 | · | 21 | -5%
CSc1nc2c(c(-c3ccc(O)cc3)c1C#N)CCC2 | 4.4 | -10 | -35 | -2 | 13%
O=C1OCCN1C(=O)[C@H]1[C@H](c2ccc(Cl)cc2)C(c2cccc(Cl)c2)=NN1c1ccccc1 | -102 | 20 | 20 | -34 | 3%
Cc1cccc(-n2ccc(=O)c(C(=O)Nc3ccc(S(=O)(=O)Nc4onc(C)c4C)cc3)n2)c1 | 1.3 | 9 | · | · | ·
CCc1ccc(-c2cc(C)no2)cc1S(=O)(=O)N1CCN(c2ccccc2)CC1 | 5.5 | -2 | · | · | ·
O=C(COC(=O)CC(c1ccccc1)c1ccccc1)Nc1cccc(F)c1 | 8.2 | 0 | -15 | 6 | ·
O=C(Nc1ccccc1N1CCCCC1)c1cccc(F)c1 | 14 | 6 | -3 | -23 | 6%
COc1ccc(S(=O)(=O)N2CCC(C(N)=O)CC2)cc1C(=O)N1CCCCCC1 | 2.1 | 2 | · | · | ·
O=C(NNC(=O)c1cccs1)c1ccc2ccccc2c1 | 1.5 | -1 | · | 0 | 7%
O=C(O)c1ccc(NCCC2=CCCCC2)c([N+](=O)[O-])c1 | 0.0 | -6 | · | -1 | 2%
CCOC(=O)c1nnn(CC(=O)Nc2cc(F)ccc2F)c1C(=O)OCC | 2.8 | -4 | 5 | 2 | -13%
OCc1cn(-c2ccccc2)nc1-c1cccnc1 | -0.4 | 55 | -56 | -5 | 1%
O=C1CCc2cc(S(=O)(=O)Nc3ccccc3)cc3c2N1CCC3 | 3.2 | -13 | · | · | ·
COc1ccccc1NC(=O)C1CCCN1S(=O)(=O)c1cccc2nsnc12 (configuration not stated) | -3.1 | 1 | · | · | ·
Cn1cnc(S(=O)(=O)Nc2ccc(OC(F)(F)F)cc2)c1 | -1.1 | -2 | · | 0 | 7%
Cc1ccccc1N(C)S(=O)(=O)c1ccc2[nH]cc(C(=O)NCC3CCCO3)c(=O)c2c1 (configuration not stated) | · | 0 | -18 | 2 | 9%
CCOc1cc(N2CCOCC2)c(OCC)cc1NC(=O)c1nc2nc(C)cc(C)n2n1 | 1.2 | -13 | · | · | ·
CC(C)Oc1ccc(C(CCNCc2ccc(O)cc2)c2ccccc2)cc1 (configuration not stated) | 3.1 | 52 | · | · | ·
COc1cc([N+](=O)[O-])ccc1N | 1.8 | -3 | -7 | -8 | -2%
Cc1cccc(-n2ncc3c2CCCC3NC(=O)CN2CCOC2=O)c1C (configuration not stated) | 1.6 | 2 | · | · | ·
CC1CC(C)CN(CCCNC(=O)c2ccc(N3CCCC3=O)cc2)C1 (configuration not stated) | -1.3 | 13 | · | · | ·

Among those listed so far, these contain two or more sulfur atoms:
SMILES | RecA intein inh | Mtb bLac sens | YopH inh | Arbovirus anti | Mtb H37Rv | others
CSc1ncc(S(=O)(=O)c2ccccc2)c(=O)[nH]1 | -0.6 | 0 | · | 13 | -1%
COc1ccccc1NC(=O)C1CCCN1S(=O)(=O)c1cccc2nsnc12 (configuration not stated) | -3.1 | 1 | · | · | ·

Following part.
SMILES | RecA intein inh | Mtb bLac sens | YopH inh | Arbovirus anti | Mtb H37Rv | others
COc1ccc(C(=O)N2CCCC2)cc1S(=O)(=O)N1CCOCC1 | -0.9 | -13 | -2 | -1 | 1%
Cc1ccc(CNC(=O)COC(=O)Cn2nc(C)c([N+](=O)[O-])c2C)cc1 | 0.9 | 1 | · | 2 | -2%
CC(=O)OCC(=O)N1N=C(c2ccc3ccccc3c2)CC1c1ccccc1 (configuration not stated) | 1.2 | 1 | · | -17 | 9%
CCn1c(SCC(=O)N/N=C/c2cc(OC)c(O)c(OC)c2)nc2ccccc21 | -2.5 | 6 | -26 | -1 | 4%
CC(=O)NCCc1nc2cc(NC(=O)c3cccc([N+](=O)[O-])c3)ccc2n1C | -3.4 | 6 | · | · | ·
O=C(COc1ccccc1CNCc1ccccc1)Nc1ccccc1 | 0.1 | -9 | -10 | -43 | 3%
CCOC(=O)Cc1csc(NC(=O)c2cccc([N+](=O)[O-])c2)n1 | 5.2 | 1 | · | · | ·
CCNC(=S)Nc1c(C)n(C)n(-c2ccccc2)c1=O | -2.2 | 5 | · | -3 | 1%
Cc1ccc(C(C)C)c(OCCNC(=O)c2ccccc2O)c1 | 10 | 16 | · | · | ·
CCOc1ccc(-c2c(C(=O)N/N=C/c3ccc(C)cc3)nnn2-c2nonc2N)cc1 | · | 2 | · | · | 45%
Cc1[nH]n(-c2ccccc2)c(=O)c1/C=N/NC(=O)c1cccc([N+](=O)[O-])c1 | · | · | -32 | -26 | 32%
CC(C)CNC(=O)NC(=O)COC(=O)c1cc([N+](=O)[O-])ccc1NCc1ccccc1Cl | 12 | 0 | · | -4 | 1%
NS(=O)(=O)c1ccc(CCn2c(=S)[nH]c3ccccc3c2=O)cc1 | 2.0 | -8 | · | · | -1%
C[C@@H]1CN(C2CCN(Cc3nc(C(c4ccccc4)c4ccccc4)no3)CC2)C[C@H](C)O1 | 5.8 | -5 | · | -17 | -13%
O=C(Nc1cccc(Cl)c1)Nc1nnc(-c2ccncc2)s1 | 0.7 | 16 | 18 | 0 | ?
Fc1cc2nc(-c3ccncc3)[nH]c2cc1F | -0.1 | 5 | -41 | -2 | · | Arbovirus anti repeat=2
CC(=O)Nc1ccc(/C(C)=N/NC(=O)c2ccc(F)cc2)cc1 | -3.4 | 3 | -24 | -2 | 1%
Cc1ccc(NC(=O)c2cc(C(=O)Nc3ccc(C)cc3)n(C)n2)cc1 | 1.5 | 4 | · | · | ·
COc1ccc(NC(=O)Cn2nnc(-c3ccccc3NS(=O)(=O)c3ccc(OC)cc3)n2)cc1 | 2.1 | 3 | -13 | -11 | 7%
Cc1ccccc1NC(=O)c1sc2nc3c(c(-c4ccco4)c2c1N)CCCC3 | -18 | 3 | -22 | 1 | -4%
COc1ccc(N(CC(=O)Nc2ccc(C)cc2C)S(=O)(=O)c2ccccc2[N+](=O)[O-])c(OC)c1 | 3.8 | 0 | · | -13 | -1%
O=C(O)/C(=C\c1ccc2ccccc2c1)c1cccc2ccccc12 | 12 | 1 | · | · | ·
O=C(NNC(=O)c1cc2ccccc2cc1O)Nc1ccc(Br)cc1 | 0.0 | 3 | · | · | ·
Cc1ccc(C(=O)Oc2coc(CSc3nnc(NC(=O)C4CC4)s3)cc2=O)cc1C | · | · | -35 | -12 | 0%
O=c1ccnc(SCCC(F)=C(F)F)[nH]1 | 1.6 | -1 | · | 25 | 5%

2 entries picked at random from those above, as already listed:
SMILES | RecA intein inh | Mtb bLac sens | YopH inh | Arbovirus anti | Mtb H37Rv | others
COc1ccc(NC(=O)Cn2nnc(-c3ccccc3NS(=O)(=O)c3ccc(OC)cc3)n2)cc1 | 2.1 | 3 | -13 | -11 | 7%
Cc1ccccc1NC(=O)c1sc2nc3c(c(-c4ccco4)c2c1N)CCCC3 | -18 | 3 | -22 | 1 | -4%

Next structures
SMILES | RecA intein inh | Mtb bLac sens | YopH inh | Arbovirus anti | Mtb H37Rv | others
Cc1[nH][nH]c(=O)c1C(c1c(C)[nH][nH]c1=O)c1cn(Cc2ccc(F)cc2)c2ccccc12 | · | 11 | -5 | 2 | 28%
CCCCC(=O)Nc1ccc2c(c1)nc(CN1CCN(C(=O)OCC)CC1)n2C | -1.2 | 10 | · | · | ·
O=[N+]([O-])c1cc(Cl)ccc1NCCNS(=O)(=O)c1ccccc1 | -1.2 | 14 | -13 | -1 | 8%
CCc1cc(=O)oc2cc(C)c3c(C)coc3c12 | 2.5 | 0 | -3 | -5 | -3%
COc1ccc(CNC(=O)C/C(C)=N/NC(=O)Cc2ccc(OC)cc2)cc1 | 0.3 | 2 | -17 | 4 | 7%
CC(=O)Nc1ccc(OC(=O)c2ccco2)cc1 | 33* | 1 | -20 | -13 | -4%
Cn1c(CNC(=O)CCNC(=O)c2cccc(F)c2)cc(=O)n(C)c1=O | -1.1 | -1 | · | · | ·
Cc1cc2cc(CNC(=O)c3ccco3)ccc2n1C | 21 | 28 | · | -1 | 10% | Arbovirus anti repeat=-5
Cn1c(CNC(=O)Nc2ccccc2)nnc1SCc1ccccc1 | · | 16 | -46 | -2 | 1%
Cc1cnc(NC(=O)c2c(Cl)cnn2C)s1 | -0.6 | -5 | · | · | ·
COC(=O)c1ccc(OC)c(CSc2nnc(COc3cccc(C)c3)o2)c1 | -0.2 | 48 | -23 | -8 | -6%
COC(=O)c1ccc(-n2nnnc2SCC(=O)NCc2cccc(C(=O)O)c2)cc1 | -1.4 | -4 | -4 | 10 | -10%
CC(C)c1nnc(SCC(=O)N2CCOCC2)n1C | 1.9 | -6 | -25 | 0 | -15%
CCN(CC)CCn1c(NC(=O)c2ccccc2O)nc2ccccc21 | 6.0 | 64 | · | · | ·
COc1cccc(CNS(=O)(=O)c2ccc3c(c2)N(C)CCO3)c1 | -5.0 | -2 | · | · | ·
COc1ccccc1NC(=O)CCN1CCCCCC1 | 0.8 | 3 | -55 | 7 | -10%
CCOc1cc(/C=N/Nc2nncc(-c3ccccc3)n2)ccc1O | -2.2 | 2 | · | 2 | 6%
CCN(CC)CCNC(=O)C(=O)NCC1OCCN1S(=O)(=O)c1ccc2c(c1)OCCO2 (configuration not stated) | 0.7 | 4 | · | 10 | 1%
O=[N+]([O-])c1ccccc1OCCCN1CCOCC1 | 0.1 | -6 | -5 | 1 | -2%
Cc1csc(NC(=O)CSc2nnc(-c3ccccc3)o2)n1 | 0.2 | 66 | 2 | -4 | 55%
Cc1nc2ncnn2c(C)c1CCC(=O)N1CCN(Cc2ccccc2)CC1 | -1.1 | -5 | -29 | 2 | -13%
C/C(=N\NC(=O)C(C)Oc1ccc([N+](=O)[O-])cc1)c1ccccn1 (configuration not stated) | 1.4 | 99 | -17 | -30 | ·
Cc1ccc(S(=O)(=O)N2CCCC2C(=O)OCC(=O)Nc2ccc3c(c2)OCO3)cc1 (configuration not stated) | 1.1 | -4 | 8 | -2 | -11%
Cc1ccc(CS(=O)Cc2ccc(C(=O)NCc3ccccc3Cl)o2)cc1 (configuration not stated) | 4.2 | -3 | · | · | ·
O=C1CCCC2=C1C(c1ccc3c(c1)OCO3)c1c([nH]n(-c3ccccc3)c1=O)N2 (configuration not stated) | 74* | -12 | -37 | -1 | -6%

Overlap with the part before: 2 compounds, followed by the next part.
SMILES | RecA intein inh | Mtb bLac sens | YopH inh | Arbovirus anti | Mtb H37Rv | others
Cc1ccc(CS(=O)Cc2ccc(C(=O)NCc3ccccc3Cl)o2)cc1 (configuration not stated) | 4.2 | -3 | · | · | ·
O=C1CCCC2=C1C(c1ccc3c(c1)OCO3)c1c([nH]n(-c3ccccc3)c1=O)N2 (configuration not stated) | 74* | -12 | -37 | -1 | -6%
O=C(NCCc1ccccc1)c1ccc(=O)oc1 | -1.3 | -2 | -30 | -3 | -2%
COc1cc(/C=N/NC(=O)c2ccc(COc3cc(C)ccc3C(C)C)cc2)cc(OC)c1O | -2.1 | 2 | -25 | -15 | 6%
COc1ccc(C(=O)Cc2cnn(-c3ccccc3)c2)c(O)c1 | 0.1 | -5 | -4 | -3 | 15%
Cc1nc(-c2cccc(Br)c2)ccc1C(=O)O | 0.8 | 1 | · | 8 | 5%
Cc1ccc(NC(=O)CN2CCN(Cc3ccccc3)CC2)cc1F | -0.6 | 3 | · | · | ·
O=C(NC1CCCCC1)c1ccc(Cn2cc(Cl)cn2)cc1 | -1.4 | -5 | -20 | -10 | 1%
Cc1ccc(OCc2nnc(SCC(=O)O)n2-c2ccccc2)cc1 | 0.1 | 35 | · | · | ·
Cc1cc(C)c(C)c(OCCCCN2CCCCC2)c1 | -3.6 | 7 | · | · | ·
Cc1cc(NC(=O)CSCC(=O)N(c2ccc(F)cc2)C(C(=O)NC2CCCCC2)c2ccc(O)c(O)c2)no1 (configuration not stated) | 1.8 | 0 | -29 | -12 | -8%
CCOC(=O)c1ccccc1N1C(=O)CSC1=S | -0.2 | 3 | -9 | 6 | -7% | Arbovirus anti repeat=-2

Source: PubChem BioAssay (several laboratories)

Only part of the results is shown; rates above refer to the full screens.
